Assay outcomes as filed in PubChem.
HSV replic up: increases HSV replication in cells. maximum fold increase. actives 0.005% (n = 220,000). HSV replication augmentation in cells, fold increase. AID 1956;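 active means peak rise of 1.5-fold or more in the series; tested in PC3 cells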;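 further: first round at 10 µM; read as green reporter fluorescence; hits show the peak of a series up to 25 µM; 1 = signal of infected wells without compound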
GALR2 agonist: agonists of human galanin receptor 2 (GALR2). activation, %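 (tested at 5 µM)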. actives 0.48% (n = 140,000). GALR2-expressing cells, agonist activation read-out;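 active means above mean plus 3 SD of all compounds, about 5% in these data, not always enough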;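 further: 0% = vehicle buffer wells and 100% = reference agonist at full effect; tested in CHO reporter cells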
Target sequence (O43603 whole entry, looked up): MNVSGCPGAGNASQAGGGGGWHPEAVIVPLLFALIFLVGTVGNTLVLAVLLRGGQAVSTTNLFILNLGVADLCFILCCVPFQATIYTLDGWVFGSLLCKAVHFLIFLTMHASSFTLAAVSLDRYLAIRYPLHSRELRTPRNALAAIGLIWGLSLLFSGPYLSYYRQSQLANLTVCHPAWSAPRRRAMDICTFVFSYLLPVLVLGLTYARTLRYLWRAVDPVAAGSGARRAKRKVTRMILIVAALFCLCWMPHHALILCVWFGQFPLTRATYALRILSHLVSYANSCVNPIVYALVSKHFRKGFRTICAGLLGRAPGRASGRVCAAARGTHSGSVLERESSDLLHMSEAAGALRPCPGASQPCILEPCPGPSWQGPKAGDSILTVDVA
PKD1 kinase inh: inhibitors of human PKD1 kinase; actives 0.056% (n = 200,000); inhibition, %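 (about 10 µM by stock and volumes)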; Q15139; PKD1 kinase fluorescence polarization assay;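 active means inhibition of 50% or more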;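 further: controls were vehicle for no effect and a reference inhibitor for full effect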
Insulin prom inh: TRM-6 insulin promoter activity inhibition; TRM-6 cells (human fetal islet line), insulin promoter-eGFP reporter, imaging; reporter expression induced with tamoxifen; AID 1273; actives 0.9% (n = 130,000); inhibition, % at 2 µM;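 active means inhibition above the mean plus 3 SD, with well images judged a real hit on visual review, cut at about 60% in these data, passing the limit was not always enough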
RGS16-Gao: RGS16-Galphao interaction regulator (human). O15492+P09471. bead-based flow cytometry RGS16-Galphao binding, fluorescence; actives lie on both sides. binding response (% of control), % at 10 µM. actives 0.38% (n = 220,000). AID 1441;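 active means below 25% or above 175%, edge rows of some plates excepted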;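 further: Galphao activated by GDP with aluminum fluoride before binding; 100% = wells without compound and 0% = beads without RGS; some results beyond the cut were filed as inactive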
Target sequence (O15492 whole entry, looked up): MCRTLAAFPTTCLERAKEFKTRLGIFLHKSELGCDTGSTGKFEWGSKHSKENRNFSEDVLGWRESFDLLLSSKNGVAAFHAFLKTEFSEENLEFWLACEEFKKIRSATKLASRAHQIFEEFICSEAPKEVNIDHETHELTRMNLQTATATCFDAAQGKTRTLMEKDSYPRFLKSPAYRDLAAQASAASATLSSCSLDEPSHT
Target sequence (P09471 whole entry, looked up): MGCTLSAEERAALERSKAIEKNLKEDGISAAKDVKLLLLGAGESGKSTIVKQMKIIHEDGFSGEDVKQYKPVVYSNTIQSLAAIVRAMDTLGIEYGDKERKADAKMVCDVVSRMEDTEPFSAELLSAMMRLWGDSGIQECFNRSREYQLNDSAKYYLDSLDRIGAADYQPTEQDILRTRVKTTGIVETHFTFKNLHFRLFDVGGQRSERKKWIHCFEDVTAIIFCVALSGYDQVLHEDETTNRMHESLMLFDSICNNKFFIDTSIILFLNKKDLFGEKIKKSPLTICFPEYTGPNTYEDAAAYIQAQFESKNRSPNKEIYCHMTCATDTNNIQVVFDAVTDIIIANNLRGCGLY
Insulin prom inh cell count: also measured in Insulin prom inh; calls as there; normalized cell count, %; measured here: cell count, toxicity; reference of the scale not given here;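 cells exposed to compound for 48 h; stained nuclei by imaging scaled within each plate; lower means fewer cells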
HSV replic up primary fold: further read-out of HSV replic up, marked with its call; fold increase; compound at 10 µM; measured here: primary screen fold increase 10 uM; tested in PC3 cells;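 GFP signal in the first replicate; 1 = infected wells without compound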
An asterisk follows results filed as active; i = inactive; nt = no result given. Rows are unselected; 1.3% or so of the library scored in one or more.

SMILES	HSV replic up	HSV replic up primary fold	GALR2 agonist	PKD1 kinase inh	Insulin prom inh	Insulin prom inh cell count	RGS16-Gao
CC1CCCN(c2nc3c(c(=O)[nH]c(=O)n3C)n2Cc2ccccc2Cl)C1 (stereo unspecified)	i	0.93	-1.2	-13.5	nt	nt	99.4
COc1ccc(C2CCCN2C(=S)Nc2ccc(C)c(C)c2)cc1OC (stereo unspecified)	i	0.88	nt	2.7	nt	nt	98.6
Cc1nc(N2CCOCC2)nc(N2CCCCC2)c1[N+](=O)[O-]	i	0.99	-0.2	8.3	14.3	76.8	10.6
O=C(c1ccc2c(=O)n(Cc3ccco3)c(=S)[nH]c2c1)N1CCN(Cc2ccccc2)CC1	i	0.94	-1.0	-7.2	17.1	65.3	114.5
COc1ccc(CNc2oc(COc3ccc(Cl)cc3)nc2C#N)cc1	i	0.91	-4.0	-15.1	nt	nt	100.3
CC(C)c1cc(C(=O)NNC(=S)NCc2ccco2)c(O)c(C(C)C)c1	i	0.88	-1.1	0.2	nt	nt	102.2
N#Cc1c(NCCCO)nc(-c2ccco2)c2c1CCCC2	i	1	4.5	5.3	13.8	105.8	291.3
O=C(COC(=O)Cc1ccsc1)NCC12CC3CC(CC(C3)C1)C2	i	1.04	-1.2	-5.5	-30.4	102.8	93.3
CNC(=S)Nc1cc(OC)ccc1OC	i	0.93	-3.9	-8.5	-7.4	116.0	104.6
CCOC(=O)Cc1cc(-c2ccc(OC)cc2)nc2ccc3ccccc3c12	i	0.95	-0.6	-5.0	0.0	163.8	101.6
C/C(=N\NC(=S)NC(C)C)c1ccc(Cl)c([N+](=O)[O-])c1	i	0.95	nt	nt	nt	nt	107.5
Cc1noc(C(=O)NCc2ccco2)c1Cl	i	0.88	0.2	-6.1	nt	nt	101.5
Cc1ccc(S(=O)(=O)CCc2nnc(NC(=O)C3CCCO3)s2)cc1 (stereo unspecified)	i	0.92	-1.8	-7.8	-5.4	115.0	95.2
Cc1ccc(-n2c(-c3ccccc3)nnc2-c2cccs2)cc1	i	1.06	-2.0	0.0	-23.8	85.7	107.6
Cc1cc(C)cc(OCC(=O)NCc2cc(C)nc3ccccc23)c1	i	0.83	nt	-10.3	nt	nt	95.6
Cc1ccc(-c2n[nH]c(=S)n2C)cc1Cl	i	0.88	nt	-2.3	nt	nt	95.8
O=C1CC(NNc2ccccc2)C(=O)N1c1cccc(Cl)c1 (stereo unspecified)	i	0.91	-2.2	0.5	46.7	106.8	73.9
CNC(=O)C(=O)NCC1OCCN1S(=O)(=O)c1ccc([N+](=O)[O-])cc1 (stereo unspecified)	i	0.92	-1.3	-1.5	-16.0	138.0	99.0
COc1ccc(S(=O)(=O)N2CCCC(C(=O)NCc3ccco3)C2)cc1Cl (stereo unspecified)	i	1.19	-0.7	-0.5	-95.5	73.9	97.6
O=C(C[n+]1cc(-c2ccccc2)n2c1CCC2)c1cccs1	i	1.04	nt	3.8	41.7	113.0	79.2
Cc1cc(C(=O)Nc2ccc(S(=O)(=O)N3CCOCC3)cc2)c(C)o1	i	0.76	nt	nt	nt	nt	98.3
COc1cccc(NS(=O)(=O)c2c(C)n(C)c(=O)n(C)c2=O)c1	i	0.92	-2.0	-4.4	nt	nt	100.4
Cc1c(C(=O)NCc2ccccn2)sc2nc(-c3ccc(F)cc3)cn12	i	0.88	-0.1	-0.4	-108.5	126.5	89.5
COCCn1c(NCc2ccc(C)cc2)nc2c1c(=O)[nH]c(=O)n2C	i	0.81	0.5	3.0	0.0	140.3	75.3
O=C(Nc1ccccc1F)c1ccc(CSc2ncccn2)cc1	i	1.11	nt	-0.8	30.0	119.2	103.5
CN(C)S(=O)(=O)c1ccc(C(=O)Nc2nnc(SCc3cccc(F)c3)s2)cc1	i	0.92	-0.5	3.0	-48.0	160.2	104.0
COc1ccc(CC(=O)Nc2c3c(nn2-c2cccc(Cl)c2)CS(=O)(=O)C3)cc1	i	0.85	-2.2	-7.6	-53.2	38.1	98.7
COC(=O)[C@H](C)NC(=O)NCc1ccc(F)cc1	i	1.07	-3.8	-4.8	-27.6	113.6	99.2
Nc1cccc(-c2cc3ccccc3oc2=O)c1	i	0.86	nt	-0.6	nt	nt	89.6
COc1ccc(-n2nnnc2SC(C)C(N)=O)cc1 (stereo unspecified)	i	1.08	-2.3	-8.2	nt	nt	96.1
COc1ccc2cc(CN(CC3COCCO3)S(=O)(=O)c3c(C)cc(C)cc3C)c(=O)[nH]c2c1 (stereo unspecified)	i	0.98	-1.1	4.8	14.3	120.9	104.8
COC(=O)[C@@H](NC(=O)Nc1ccc(OC)cc1)C(C)C	i	0.94	-1.8	48.4	3.9	93.5	105.0
CCCCNC(=O)c1onc(CSc2ccc(OC)cc2)c1C(=O)O	i	0.92	-3.0	-4.9	nt	nt	101.9
O=C(N/N=C1\CCc2ccccc21)c1ccncc1	i	0.9	-0.8	5.4	nt	nt	102.4
O=c1[nH]c(CSc2ncc(C(F)(F)F)cc2Cl)nc2ccccc12	i	1.1	nt	2.4	-52.6	71.8	102.1
CNc1oc(-c2ccc(OCc3ccccc3)cc2)nc1C#N	nt	nt	0.5	1.1	-21.4	68.5	101.0
COc1ccccc1NC(=O)CC(c1ccc(F)cc1)c1ccco1 (stereo unspecified)	i	0.86	nt	nt	nt	nt	106.5
Cn1c(NCC(O)CO)nc2c1c(=O)n(Cc1ccc(Cl)c(Cl)c1)c(=O)n2C (stereo unspecified)	i	0.81	-1.8	-7.0	-4.7	195.2	100.5
O=C(CN1CCCN(Cc2ccc(F)cc2Cl)C1=O)NC1CCCC1	i	0.99	nt	-8.2	-26.7	113.8	102.0
COCCn1c(SCC(=O)Nc2ccccc2C)nc2c(oc3ccccc32)c1=O	i	0.88	-1.1	-0.7	nt	nt	97.2
CCOCCn1c(CC)nc2ccccc21	i	1.05	nt	-1.5	nt	nt	100.7
Cc1cccc2cc(C#N)c(SCC(=O)NNC(=O)Cc3ccccc3)nc12	i	0.94	-0.7	-9.9	24.4	128.1	96.7
O=C(Cc1cccc2ccccc12)NCCOc1ccccc1F	i	0.9	nt	-2.0	nt	nt	104.5
CC(C)CC(=O)CN1C(=O)C2(OCCO2)c2ccccc21	i	1.02	-0.5	-2.6	0.0	120.0	100.7
CNC(=O)c1[nH]cnc1C(=O)N[C@@H](Cc1ccccc1)C(=O)OC(C)(C)C	i	0.75	nt	-6.0	nt	nt	96.4
CCn1ncc(/C=N/O)c1C	i	0.92	-0.4	-2.8	17.2	138.4	115.9
CC(Sc1nnc(-c2ccc(O)cc2)o1)C(=O)Nc1cccc2ccccc12 (stereo unspecified)	i	0.92	-0.6	3.5	77.4*	30.9*	101.7
OCCCN1CCN(CCOc2ccccc2-c2ccccc2)CC1	i	1	-1.4	8.7	-69.2	56.7	105.7
Cn1c(-c2ccccc2)cnc1N	i	0.96	2.2	-6.2	-12.8	140.0	106.8
COc1ccc(N(C(=O)c2ccco2)S(=O)(=O)c2cccc([N+](=O)[O-])c2)cc1	i	1	-2.5	-7.3	-30.0	102.7	87.4
Cn1cc(CN2CCC(C(=O)N3CCCC3)CC2)c(-c2ccccc2F)n1	i	1.05	nt	0.6	-26.7	102.5	106.2
Cc1cc(C)n2[nH]c(=O)c(N=Nc3cccc(C(F)(F)F)c3)c2n1	i	0.92	-0.8	-0.9	13.3	118.4	98.4
CC1=C(n2nnc3ccccc32)C(c2ccccc2)C(C#N)=C(N)O1 (stereo unspecified)	i	0.92	-1.7	3.5	50.0	98.4	99.5
C/C(NC1CCCC1)=C(/C#N)C(N)=O	i	1.07	0.8	-3.4	33.3	207.8	94.0
CCn1c2ccccc2c2cc(/C=N/NC(=O)c3ccncc3)ccc21	i	0.85	nt	-2.7	nt	nt	109.2
CCN1CCN(c2nc(Nc3cc(OC)ccc3OC)nc(Nc3cc(OC)ccc3OC)n2)CC1	i	0.8	nt	nt	nt	nt	105.1
COc1ccccc1NC(=O)N(CCN(C)C)Cc1cc2cc(C)ccc2[nH]c1=O	i	0.967	-0.9	-10.4	nt	nt	104.8
CCC(C)(C(=O)Nc1ccccc1C)N(C(=O)CNC(C)=O)c1ccc(C)cc1 (stereo unspecified)	i	1.01	-1.0	-2.5	-38.5	134.8	107.0
CCOC(=O)N1CCN(C(c2ccc(F)cc2)c2sc3nc(C)nn3c2O)CC1 (stereo unspecified)	i	0.82	-1.6	-9.0	nt	nt	99.2
CC1CC(C)CN(CC(=O)NC(c2ccccc2)c2ccccc2)C1 (stereo unspecified)	i	1	nt	4.5	nt	nt	205.7
(cont.)
SMILES	HSV replic up	HSV replic up primary fold	GALR2 agonist	PKD1 kinase inh	Insulin prom inh	Insulin prom inh cell count	RGS16-Gao
CCC(=O)Nc1ccc(C(=O)CN2CCC(C)CC2)cc1	i	0.9	nt	-0.8	-8.3	110.9	102.8
CCCCCCn1c(CN2CCN(Cc3ccccc3)CC2)nc2c1c(=O)n(C)c(=O)n2C	i	0.73	2.3	-5.2	-10.3	69.8	100.6
Cc1nn(Cc2n[nH]c(=S)n2Cc2ccccc2)c(C)c1Cl	i	0.85	2.1	-6.8	-12.8	30.5	106.3
COc1ccccc1C(=O)NCC(=O)OCC(=O)Nc1cccc(S(=O)(=O)N2CCCCCC2)c1	i	0.99	nt	0.7	nt	nt	97.8
COCCNC(=O)CC(=O)N/N=C/c1ccc(C(=O)OC)cc1	i	0.95	nt	-7.5	nt	nt	102.5
CC(=O)c1cccc(NC(=O)[C@@H](NC(N)=O)C(C)C)c1	i	1.02	nt	1.5	nt	nt	97.8
COc1ccc([N+](=O)[O-])cc1NS(=O)(=O)c1cccc(C(=O)O)c1	i	1.01	nt	nt	nt	nt	98.4
CCOC(=O)c1c(C=O)c2sc(C)cc2n1C	i	0.84	nt	2.9	-28.6	99.7	114.2
COc1cc(OC)c2cc(C(=O)N/N=C/c3cccc(OC)c3O)[nH]c2c1	i	0.78	nt	nt	nt	nt	93.7
C#CCCOC(=O)N1C2=NC(C(=O)OC)=C(C(=O)OC)[C@@H]3N(Cc4ccccc4)c4ccccc4[C@]23C[C@H]1C(=O)OC	i	0.79	nt	nt	nt	nt	104.2
Cc1cccc(NC(=O)c2cc(S(=O)(=O)NCc3ccco3)ccc2F)c1C	i	0.67	0.0	-12.2	nt	nt	101.7
Clc1ccc(Sc2oc(/C=N/n3cnnc3)cc2Br)cc1	i	0.98	-0.7	-7.4	nt	nt	96.1
CCOC(=O)c1sc2ncnc(N3CCN(C)CC3)c2c1C	i	0.95	nt	-3.1	nt	nt	100.7
C=CCn1c2ccccc2c2nnc(SC(CC)C(=O)Nc3nc(C)c(C(=O)OCC)s3)nc21 (stereo unspecified)	nt	nt	-1.2	-11.2	0.0	138.8	103.5
CCOC(=O)c1sc(Nc2nc(C)cc(OC)n2)nc1C	i	0.98	nt	3.5	5.0	60.4	99.2

Molecules listed so far with a nitro group on carbon (five):
SMILES	HSV replic up	HSV replic up primary fold	GALR2 agonist	PKD1 kinase inh	Insulin prom inh	Insulin prom inh cell count	RGS16-Gao
Cc1nc(N2CCOCC2)nc(N2CCCCC2)c1[N+](=O)[O-]	i	0.99	-0.2	8.3	14.3	76.8	10.6
C/C(=N\NC(=S)NC(C)C)c1ccc(Cl)c([N+](=O)[O-])c1	i	0.95	nt	nt	nt	nt	107.5
CNC(=O)C(=O)NCC1OCCN1S(=O)(=O)c1ccc([N+](=O)[O-])cc1 (stereo unspecified)	i	0.92	-1.3	-1.5	-16.0	138.0	99.0
COc1ccc(N(C(=O)c2ccco2)S(=O)(=O)c2cccc([N+](=O)[O-])c2)cc1	i	1	-2.5	-7.3	-30.0	102.7	87.4
COc1ccc([N+](=O)[O-])cc1NS(=O)(=O)c1cccc(C(=O)O)c1	i	1.01	nt	nt	nt	nt	98.4

(continued)
SMILES	HSV replic up	HSV replic up primary fold	GALR2 agonist	PKD1 kinase inh	Insulin prom inh	Insulin prom inh cell count	RGS16-Gao
CC(=O)c1ccc(OCCOc2ccc(C#N)cc2)cc1	i	1.07	nt	nt	nt	nt	96.4
Cc1ccccc1CSc1nncn1N	i	0.91	-0.9	-5.0	-10.5	78.2	100.2
O=C(NCc1ccco1)/C(=C\c1cccs1)NC(=O)c1ccccc1	i	0.95	nt	1.4	nt	nt	105.1
Cc1cc(OCCCCOc2ccc(C#N)cc2)ccc1[N+](=O)[O-]	i	0.84	nt	nt	nt	nt	97.2
Cc1onc(-c2ccccc2)c1C(=O)NCc1cccnc1	i	1.02	-2.3	-12.6	nt	nt	101.3
Cc1ccc(CNC(=O)NC2CCCCC2)cc1	i	0.89	-2.1	-3.3	nt	nt	106.9
CN(C(=O)c1ccc(S(=O)(=O)NC2CCCC2)cc1)C1CCCCC1	i	0.88	0.7	12.2	-119.0	118.0	115.5
CCC(C)(C)NC(=O)c1sccc1Oc1ccc(F)cc1[N+](=O)[O-]	i	0.99	nt	-1.0	-46.3	92.6	103.1
